CtBP-E1A inh = qHTS Assay for Inhibitors of the CtBP/E1A Interaction; AlphaScreen GST-E1A/His-CtBP binding, 1536-well; stronger effect = lower value; control for the full effect not named in the record; activity change, % (concentration not given with the values); 0.49% of 340,000 active; in the data active means activity change below about -65%; inconclusive means about -30% to -65%; inactive means above about -30%; note: % is set by controls: 0 for no effect and ±100 for the full control effect
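Homogeneous bead-based format: GST-tagged E1A captured on glutathione donor beads, His-tagged CtBP on nickel acceptor beads; compounds precede bead addition by 2 h at 37 °C.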
PINK1 expr mod = A Quantitative High throughput Screen to Identify Chemical Modulators of PINK1 Expression. PINK1 immunofluorescence, high-content cytometry, 24 h. Potency, µM (doses to about 76.6 µM), for the others: top-dose activation (PINK1 increase), hits mostly activators. 0.2% of 410,000 active; active = well fitted activation curve with a large enough effect; inconclusive = small, poorly fitted or top-dose-only effect; inactive = flat fitted curve, though single readings scatter; cell line not stated here;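 note: potency is the fitted concentration of half-maximal effect; % of control where 0% means no effect; nearly all actives have a fitted effect of over 65% in size; a mitochondrial uncoupler was the plate control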
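Readout is PINK1 immunofluorescence, quantified alongside mitochondrial, cell and nuclear markers by laser-scanning microplate cytometry. Cells from a stable line were exposed to compound titrations (5 concentrations) for 24 hours, with CCCP controls.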
TRPML1 ag = qHTS for Agonists of the Human Mucolipin Transient Receptor Potential 1 (TRPML1) | Mucolipin-1 (Homo sapiens), Q9GZU1 | TRPML1-expressing cells, Ca2+ dye fluorescence, FDSS; host cell line not named in the record; reference of the full effect not given here | activation, % (concentration not given with the values) | 0.12% of 410,000 active | AID 624414, 2012; in the data active = activation above about 50%; inconclusive = about 30% to 50%; inactive = below about 30%; note: 0% is about no effect; the text of the record puts the active cut at 80%
Target sequence (Q9GZU1 whole entry, looked up): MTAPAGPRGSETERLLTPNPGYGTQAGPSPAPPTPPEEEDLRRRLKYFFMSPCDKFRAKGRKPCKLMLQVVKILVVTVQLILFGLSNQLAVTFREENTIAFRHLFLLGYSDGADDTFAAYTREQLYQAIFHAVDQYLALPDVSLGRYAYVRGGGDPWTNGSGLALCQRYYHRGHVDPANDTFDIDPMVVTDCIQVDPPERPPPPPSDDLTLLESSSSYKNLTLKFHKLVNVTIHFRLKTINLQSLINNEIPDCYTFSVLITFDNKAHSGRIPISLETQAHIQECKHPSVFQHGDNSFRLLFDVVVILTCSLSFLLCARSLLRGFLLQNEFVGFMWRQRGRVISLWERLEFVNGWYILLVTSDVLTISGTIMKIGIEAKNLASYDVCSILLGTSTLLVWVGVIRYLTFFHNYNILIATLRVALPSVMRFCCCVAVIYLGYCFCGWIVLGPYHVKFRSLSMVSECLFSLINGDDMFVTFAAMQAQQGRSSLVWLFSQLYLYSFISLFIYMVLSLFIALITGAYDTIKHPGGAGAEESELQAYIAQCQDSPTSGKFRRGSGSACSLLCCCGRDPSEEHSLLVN
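Agonist activity was taken from a 110 s kinetic Ca2+ dye read on the FDSS after pinning compounds onto TRPML1-DL cells. The cells were seeded at 1,500/well with Tet inducer, incubated about 16 h, then dye-loaded at room temperature.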
Six1-Eya2 blk = qHTS Assay for Inhibitors of the Six1/Eya2 Interaction | AlphaScreen GST-Six1/His-Eya2 binding, biochemical; stronger effect = lower value; control for the full effect not named in the record | activity change, % (concentration not given with the values) | 0.56% of 360,000 active | AID 651725, 2012; in the data active = activity change below about -65%; inconclusive = about -30% to -65%; inactive = above about -30%; note: % is set by controls: 0 for no effect and ±100 for the full control effect
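Homogeneous AlphaScreen proximity assay pairing GST-Six1 with His-tagged Eya2 (added as 5X mix: 250 nM and 500 nM) in 50 mM Tris pH 8.0, 300 mM NaCl, 1 mM TCEP. Glutathione donor and nickel acceptor beads; 1 h, 37 °C, dark.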
TRPML1 inh = qHTS for Inhibitors of the Human Mucolipin Transient Receptor Potential 1 (TRPML1); TRPML1-inducible cells, Ca2+ dye fluorescence, FDSS; stronger effect = lower value; inhibition of EC80 agonist-evoked calcium signal; activity change, negative = inhibition, % (no concentration beside the values); 0.02% of 390,000 active; AID 624415, 2012; in the data active means activity change below about -50%; inconclusive means about -30% to -50%; inactive means above about -30%;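 note: stimulus is agonist 54-4 at its EC80 concentration; % is set by controls: 0 for no effect and ±100 for the full control effect; compound concentration not given in the record; the text of the record puts the active cut at -80%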
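Tet-induced TRPML1-DL cells loaded with Ca8 no-wash calcium dye were read kinetically on FDSS. Compound addition was followed by EC80 agonist 54-4 (4 uM final); inhibition was read over 110 s.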
D2 agonist = Beta-Arrestin HTS for Positive Allosteric Modulators of the Human D2 Dopamine Receptor: Agonists. D(2) dopamine receptor (Homo sapiens), P14416. DiscoveRx PathHunter D2 beta-arrestin, luminescence, 90 min; 100% = 57 uM dopamine signal. activation, % (no concentration beside the values). 0.084% of 360,000 active. AID 624465, 2012; in the data active = activation above about 40%; inconclusive = about 15% to 40%; inactive = below about 15%; note: compound concentration not given in the record; the text of the record calls up to 30% inactive
Target sequence (P14416 whole entry, looked up): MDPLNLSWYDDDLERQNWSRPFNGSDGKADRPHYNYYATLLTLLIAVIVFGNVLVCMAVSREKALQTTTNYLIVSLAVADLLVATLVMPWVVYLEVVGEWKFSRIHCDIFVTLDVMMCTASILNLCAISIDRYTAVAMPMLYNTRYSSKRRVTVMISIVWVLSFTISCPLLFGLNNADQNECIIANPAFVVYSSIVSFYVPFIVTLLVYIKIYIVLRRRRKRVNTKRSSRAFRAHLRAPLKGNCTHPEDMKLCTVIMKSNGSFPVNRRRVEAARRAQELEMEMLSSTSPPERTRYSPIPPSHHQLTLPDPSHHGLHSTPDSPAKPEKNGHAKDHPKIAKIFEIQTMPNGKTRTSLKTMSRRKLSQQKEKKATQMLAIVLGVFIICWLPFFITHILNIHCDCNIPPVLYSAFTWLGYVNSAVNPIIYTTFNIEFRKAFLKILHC
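Agonist mode: compounds alone added to overnight-plated D2 PathHunter cells for 90 min at 37 C, with 57 uM final dopamine (EC100) defining full response. Beta-arrestin recruitment detected by chemiluminescent reagent, read after 1 h at ambient temperature.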
An asterisk follows results filed as active; ? = inconclusive; . = not tested or not shown; & = joins results of further samples; [ ] = another dose, or the depositor's remark.

Start of the listing, in advance:
SMILES	CtBP-E1A inh	PINK1 expr mod	TRPML1 ag	Six1-Eya2 blk	TRPML1 inh	D2 agonist
O=C(O)CC1COc2ccccc2N1S(=O)(=O)c1ccc(Br)cc1 (stereo not given)	-1.3	2.8%	-1.0	4.6	14.7	-2.9
CCOC(=O)NC(NC(=S)Nc1ccccc1OC)C(Cl)(Cl)Cl (stereo not given)	6.5	0.8%	2.1	1.5	17.0	0.4

Main list (from the top)
SMILES	CtBP-E1A inh	PINK1 expr mod	TRPML1 ag	Six1-Eya2 blk	TRPML1 inh	D2 agonist
O=C(O)CC1COc2ccccc2N1S(=O)(=O)c1ccc(Br)cc1 (stereo not given)	-1.3	2.8%	-1.0	4.6	14.7	-2.9
CCOC(=O)NC(NC(=S)Nc1ccccc1OC)C(Cl)(Cl)Cl (stereo not given)	6.5	0.8%	2.1	1.5	17.0	0.4
O=c1cc(Cl)c(-c2ccccc2)n[nH]1	3.3	-0.7%	0.7	5.0	18.5	-0.2
Cc1ccc(NC(=O)COC(=O)CCC(=O)c2cccs2)c(C)c1	-0.6	1.9%	0.1	1.4	0.8	-6.2
N#Cc1ccc(Oc2nc(Nc3ccc(F)cc3)nc(N3CCCC3)n2)cc1	0.1	16.1%[38.3 µM]	3.2	-2.4	23.4	-3.2
Cc1cc(C)c(NC(=O)CSc2nnc(-c3ccncc3)n2Cc2ccco2)c(C)c1	7.0	1.5%[38.3 µM]	-0.3	-0.7	-12.2	-2.4
CCOC(=O)c1ccc(NC(=O)CSc2nc(NC(=O)c3ccccc3)c3c(C)c(C)oc3n2)cc1	-4.4	-0.2%	1.4	-1.6	-16.9	0.9
Cc1ccc(-c2nnc(Nc3ccc(S(N)(=O)=O)cc3)c3ccccc23)cc1S(=O)(=O)N1CCOCC1	.	9.2%	-0.8	.	-8.7	.
CCCOc1ccccc1C(=O)N(Cc1cccs1)C1CCS(=O)(=O)C1 (stereo not given)	-0.2	3.1%	-0.5	7.8	-6.5	-1.8
Cc1ccc(CN(Cc2ccco2)C(=S)Nc2ccccc2C)cc1	-0.8	5.7%	-0.1	-9.3	0.4	-1.3
O=c1c2oc3ccccc3c2n(Cc2ccccc2F)c(=O)n1Cc1ccco1	.	-1.2%	0.3	.	3.6	.
NS(=O)(=O)c1cccc(NC(=O)CSc2nc3ccccc3n2-c2ccccc2)c1	-3.0	-0.6%	1.5	-18.9	3.8	13.5
CCCCn1c(N)c(N(CC(C)C)C(=O)C2CC(=O)N(c3ccc(C)cc3)C2)c(=O)[nH]c1=O (stereo not given)	5.4	-0.6%	0.5	10.3	4.5	-3.2
CC1(NC(=O)CCS(=O)(=O)c2ccc(Cl)cc2)CCS(=O)(=O)C1 (stereo not given)	-4.2	0.3%	0.4	4.8	-11.1	0.8
Cc1ccc(NC(=O)c2ccc(CNS(=O)(=O)c3ccc4c(c3)C(C)(C)C(=O)N4C)cc2)cc1F	.	-0.6%	0.8	.	6.0	.
O=C(c1ccoc1)N1CCC2(CC1)Oc1ccc(F)cc1C(=O)C21CC(c2cccnc2)=NO1 (stereo not given)	3.1	-0.9%	0.3	-1.1	0.0	-2.6
CN(C(=O)C1CCC(=O)N(CCc2ccc(Cl)cc2)C1)C1CCOCC1 (stereo not given)	8.9	-3.5%	0.0	4.0	2.3	-4.7
CSc1ccc(Cl)c(C(=O)OCC(=O)N2CCOCC2)c1	-2.9	-1.4%	0.3	-2.8	0.6	-3.0
CCOc1ccccc1-n1nnnc1SCC(=O)OC	10.2	-1.7%	0.7	3.2	-2.1	-6.4
C=CCSc1nnc(-c2nnc(SCC=C)n2CC)n1CC	0.3	1.7%	-0.8	-3.9	5.0	-4.0
CCc1cc2c(=O)c(-c3cnn(-c4ccccc4)c3)c(C(F)(F)F)oc2c(CN(C)C)c1O	-3.9	5.7%	-0.8	1.5	-24.8	-3.2
CCOC(=O)CSc1nnc(NC(=O)c2cccc([N+](=O)[O-])c2)s1	2.0	3.6%	1.7	2.8	22.2	-0.4
CNS(=O)(=O)c1cccc(C(=O)NCC(c2cccs2)N2CCOCC2)c1 (stereo not given)	2.6	-0.8%	0.4	5.7	14.7	2.3
CC(Sc1ccc2c(c1)OCCO2)C(=O)Nc1ncc(Cl)cc1Cl (stereo not given)	-1.0	0.3%	-1.1	30.8	3.4	-3.5
Cc1ccc2nc(NC(=O)c3ccccn3)sc2c1	?	5.5%	1.4	-72.6*	-13.7	-1.4
Cc1ccc(CNC(=O)c2cccc(N3CCCS3(=O)=O)c2)cc1	.	0.3%	0.7	.	-18.1	.
COc1cc(S(=O)(=O)NCCN2CCOCC2)ccc1-n1cnnn1	-8.5	-0.8%	1.1	1.0	-2.2	2.4
Cc1ccc(CN2CCCC2(C)C(=O)NC(C)C)cc1 (stereo not given)	-12.4	1.5%	0.6	9.5	-1.1	-4.5
COc1cc(OC)cc(C(=O)Nc2ccc3c(c2)COC3=O)c1	-6.5	1.5%[38.3 µM]	0.3	-5.0	12.7	-2.8
C/C(=N\O)c1oc2ccc3c(C)cc(=O)oc3c2c1C	0.0	-1.4%	-1.1	-3.7	1.5	0.8
COC(=O)c1sc(NC(=O)COc2cccc(C)c2)nc1C	-2.8	2.2%	0.9	4.1	1.6	-0.2
O=C(CNC(=O)c1cccc(Br)c1)N/N=C/c1cc(Br)cc(Br)c1O	?	1.9%	1.8	-29.0	16.9	-7.8
CC(=O)/C(=C\Nc1ccc(OCc2ccccc2)cc1)c1ccccc1	6.8	2.1%	0.9	4.1	-6.3	0.0
CO/N=C(/CS(=O)Cc1ccc(Cl)cc1)c1ccc(Cl)cc1 (stereo not given)	10.2	.	1.0	0.0	-11.4	1.7
CN(C)c1ccnc(N(Cc2ccccc2)Cc2ccccc2)c1C#N	19.1	3.2%[38.3 µM]	1.6	7.2	3.2	0.1
COc1ccccc1NC(=O)c1sc2nc3c(cc2c1N)CN(Cc1ccccc1)CC3	.	5.0%	-0.3	.	-10.8	.
N#C/C(=C/c1cccn1-c1cccc(C(=O)O)c1)c1ccc(F)cc1	.	-1.0%	3.1	-17.1	34.9	-3.1
COc1ccccc1OCCSc1nc2ccccc2c(=O)[nH]1	?	-3.8%[38.3 µM]	0.6	?	-6.8	0.3
COc1ccc(CCNC(=O)CCCCn2c(=O)c3ccccc3n(CC(=O)Nc3ccc(C)cc3C)c2=O)cc1OC	.	0.9%	0.3	.	36.1	.
O=C(NCCCN1CCC(Cc2ccccc2)CC1)C1CCC(=O)N1C1CCCC1 (stereo not given)	1.3	-1.2%	-0.4	0.2	39.0	-5.2
Cn1nnnc1NCc1ccc(Cl)cc1	6.1	-0.9%	5.8	8.2	4.3	1.7
COC(=O)/C(C#N)=C/N(C)C	5.1	1.9%	3.2	2.6	-8.1	3.1
CCOC(=O)c1ccc(NC(=O)c2c(NCc3sccc3C)sc3c2CCC(C)C3)cc1 (stereo not given)	.	0.9%	-1.0	.	-8.9	.
O=C(CN1C(=O)C2CC=C(Cl)CC2C1=O)Nc1ccc(C(=O)O)cc1 (stereo not given)	2.0	5.8%[38.3 µM]	-0.3	0.6	-3.3	-1.0
CCc1ccccc1NC(=O)CCN1C(=O)C2C3CCC(C3)C2C1=O (stereo not given)	12.9	0.9%	-0.5	-7.2	56.3	-3.8
CCCCCCCCC(=O)c1c(OC)oc(C=O)cc1=O	1.6	6.3%	2.0	-5.8	7.3	-5.0
CCOC(=O)C1=C(C)NC(C)=C(C(=O)OCC)C1	6.5	0.8%[38.3 µM]	-0.3&-0.3	3.5&11.1	8.0&-11.1	0.1&-3.3
CCN(CC(=O)Nc1ccccc1-c1ccccc1)Cc1nc2ccccc2c(=O)[nH]1	3.9	2.2%	1.5	-3.5	-6.4	-0.3
COc1ccccc1NC(=O)N(C)C[C@@H]1OCc2cnnn2CCCC(=O)N([C@H](C)CO)C[C@H]1C	-5.9	3.4%	0.3	-3.3	7.4	-8.2
Cc1ccc(S(=O)(=O)N2C[C@@H]3CCCC[C@@H]3[C@@H](C)[C@H]2CC(=O)c2ccccc2)cc1	0.9	4.1%	0.1	-2.4	8.7	-2.4
CN1CCN(C(CNC(=O)C(=O)NC2CCCCC2)c2ccc(F)cc2)CC1 (stereo not given)	12.2	1.1%	-0.6	14.5	3.3	-1.3
CN(CC1CCOCC1)C(=O)CC1C(=O)NCCN1Cc1ccc(-c2ccccc2)cc1 (stereo not given)	-2.9	-1.2%	-0.1	-0.9	3.9	-2.1
O=C(Nc1c(C(=O)N2CCN(c3ccc(F)cc3)CC2)oc2ccccc12)c1c(F)cccc1F	.	-2.9%	0.5	.	-4.0	.
COc1ccc2[nH]c(=O)c(CNc3ccc(C)cc3C)cc2c1	-15.9	-1.5%	1.3	0.7	11.4	-2.6
O=C(Cn1nc(C(F)(F)F)c2c1CCCC2)Nc1ccc(Br)cc1	.	?	-0.3	.	8.0	.
O=C(Cc1ccc2c(c1)OCCO2)N1CCN(S(=O)(=O)c2cccs2)CC1	2.4	0.2%	-0.3	29.2	-16.2	-2.5
Cc1ccc2[nH]c3c(=O)n(Cc4ccco4)cnc3c2c1	2.1	1.0%	0.0	2.9	-0.9	-1.3
COCCCNC(=O)C1CCCN(C(=O)c2cnn(-c3ccc(F)cc3)c2-n2cccc2)C1 (stereo not given)	.	-0.5%	4.2	.	-17.5	.
CCC(=O)c1ccc(OCC(O)CN2CCN(C(c3ccccc3)c3ccccc3)CC2)cc1 (stereo not given)	-18.4	-0.7%[38.3 µM]	1.7	-12.9	-13.8	-0.3
Cc1c(Cl)cccc1NC(=S)NCCc1ccc(Cl)cc1	-13.5	?	-0.6	-9.6	-11.5	0.9

Further results
SMILES	CtBP-E1A inh	PINK1 expr mod	TRPML1 ag	Six1-Eya2 blk	TRPML1 inh	D2 agonist
COc1ccc(/C=N/NC(=O)c2ccc(Br)o2)cc1Cn1cc([N+](=O)[O-])cn1	-12.8	-0.7%	2.2	-5.2	13.0	3.4
CCOc1ccccc1N1CC(C(=O)Nc2cc(Cl)ccc2C)CC1=O (stereo not given)	25.4	4.6%	-1.6	8.3	1.8	-4.5
CC(C)CN(Cc1c(O)ccc2c3c(c(=O)oc12)CCC3)CC(C)C	7.4	.	0.4	5.8	11.6	0.1
CNS(=O)(=O)c1cn(CC(=O)Nc2ccc(OC)c(Cl)c2)cc1S(=O)(=O)NC	.	0.3%	1.1	.	20.5	.
Cc1nc2cc(C(=O)OCC(=O)Nc3ccc(C#N)cc3)ccc2n1-c1ccccc1	0.0	0.5%	0.1	-18.9	-8.8	-0.9
CC(=O)Oc1ccc(C(=O)c2ccccc2)c(OC(C)=O)c1	-16.1	0.9%	2.5	-14.5	-16.3	-0.9
O=C(N/N=C/C=C\c1ccccc1[N+](=O)[O-])c1ccccn1	-8.1	4.0%	-0.3	-29.9	-9.6	-3.6
CCCCCC(C)NC(=O)c1cc(S(=O)(=O)N2CCCCC2)ccc1N1CCOCC1 (stereo not given)	.	3.1%	-2.1	4.9	9.1	-2.2
CCOC(=O)CN=C/C(C(C)=O)=C(/C)O	-12.4	-1.6%	3.6	6.0	-6.9	1.9

Screens (PubChem)
